CapD inh: inhibitors of Bacillus anthracis CapD enzyme; purified CapD enzyme, fluorescence intensity read-out; hits give low values; some hits fall short of the stated cut; z-score (test concentration not listed); actives 0.23% (n = 140,000); AID 492967;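 active = z-score under -4 in either of two replicates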;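 note: stock transfer was 100 nL into about 40 µL; score is relative to mean and spread of the plate; one replicate is shown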
AID504770: growth inhibitors of E. coli YBA685 in a screen for V. cholerae RctB (chromosome II replication) inhibitors. z-score (no concentration beside the values). E. coli YBA685 rctB-dependent plasmid, OD600 growth, 3 h; hits give low values. actives 0.27% (n = 130,000). AID 504770;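 active = z-score under -2 on both plates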;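 note: wells of about 30 µL received 100 nL stock; score is relative to mean and SD of the test wells; the first replicate is given; strong numbers were not always called active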
* marks the source's active call; other numbers are inactive results; · = not tested or not shown.

SMILES | CapD inh | AID504770
CCN(Cc1ccccc1)S(=O)(=O)c1ccc(F)c(C(=O)Nc2cc(Cl)ccc2OC)c1 | 1.7 | ·
CCC(=O)OC1CSc2nc3ccccc3n2C1 (centres undefined) | · | 0.15
COc1cccc2cc(C(=O)NC3=C(C#N)CCC3)c(=O)oc12 | -0.26 | -0.9
O=C(Cn1c(=O)oc2ccccc21)N(C1CCCCC1)C1CCCCC1 | · | -0.8
O=C(C(=S)N1CCOCC1)c1c[nH]c2ccccc12 | -2.4 | -2
O=C(/C=C/c1ccco1)Nc1ccccc1C(=O)c1ccccc1 | · | -0.05
CC(=O)c1sc(NC(=O)c2ccc(S(=O)(=O)N3CCc4ccccc43)cc2)nc1C | -0.71 | ·
CC(C(=O)N1CCCCC1)n1sc2ccccc2c1=O (centres undefined) | -0.085 | 0.15
CC1CC(NC(=O)c2ncn[nH]2)CC(C)(C)C1 (centres undefined) | · | 0.8
COc1ccccc1N1CCN(Cc2cc(COCc3ccccc3)c3cccnc3c2O)CC1 | -0.015 | ·
CCCCN(C)Cc1nc2ccccc2n1C | 1 | 0.7
c1ccc2sc(N3CCN(Cc4nnnn4C4CCCC4)CC3)nc2c1 | · | 0.65
COc1ccc(/C=C(\C#N)c2cccc(Cl)c2)c(OC)c1 | -0.53 | 0.05
CC(=O)OCc1ccccc1Oc1cccc(Cl)c1 | 0.65 | -0.2
CN1CCN(C(=O)CN2C(=O)S/C(=C\c3ccccc3F)C2=O)CC1 | -1.9 | -0.35
Cc1ccc(C2=Nn3cnnc3SC2)cc1 | -0.63 | ·
c1ccc2c(c1)CC(N1CCOCC1)C2 | 0.095 | -1.6
Cc1nc2ccc(S(=O)(=O)NCC(=O)N3CCN(C4CCCCC4)CC3)cc2s1 | 0.49 | 0.15
CCn1ncc(C2=NOC(C(=O)NCC(C)C)C2)c1C (centres undefined) | 0.61 | -0.55
Cc1ccc(NC(=O)Cn2nnc(S(=O)(=O)c3ccc(C(C)(C)C)cc3)c2N)c(C)c1 | 0.3 | -0.25
C=C(C)CSc1nc2c(c(=O)[nH]1)C(C)(C1CCCCC1)Cc1ccccc1-2 (centres undefined) | 0.035 | ·
COc1ccc(-c2cc(OC(=O)c3ccccc3)cc3sc(=O)oc23)cc1 | 0.33 | -0.35
O=C1CC2c3ccccc3C1C1C(=O)N(c3cccnc3)C(=O)C21 (centres undefined) | 3.6 | ·
COC(=O)/C=C1\Nc2ccccc2C(=O)NC1=O | 11 | ·
N=c1c(C(=O)NCc2ccco2)cc2c(=O)n3ccccc3nc2n1CCCO | 12 | -0.35
O=C(c1ccccc1)N1N=C(c2ccc(F)cc2)CC1(O)C(F)(F)F (centres undefined) | -0.21 | ·
CCOC(=O)C(O)(c1csc(N)n1)c1c(C)nn(-c2ccc(C)cc2)c1N (centres undefined) | · | -0.85
CSc1sc(-c2nc(C)cs2)c(C)c1-c1ccn[nH]1 | 79 | ·
CC(C)N(Cc1nc(-c2ccccc2)no1)C(=O)C1CCCCC1 | 55 | 0.25
CCOC(=O)c1c(C(=O)OCC)c2n(c1-c1ccccc1)Cc1ccccc1-2 | 78 | 1.1
Cc1c(C#N)c2nc3c(c(-c4ccccc4)c2n1-c1ccccc1)CCCC3 | 0.28 | -0.9
Cc1cc(Br)ccc1-n1c(Sc2c([N+](=O)[O-])cc(C(F)(F)F)cc2[N+](=O)[O-])nc2ccccc2c1=O | -0.51 | ·
O=C(Nc1cccnc1)C(c1ccccc1)c1ccccc1 | · | 0.8
COc1oc(-c2ccc(F)cc2)nc1C(F)(F)F | 0.23 | -0.6
OCC1CCCN(c2ncnc3sc(-c4ccccc4)cc23)C1 (centres undefined) | · | 0.3
CC(=O)Nc1ccc2nc(SCc3c(C)cc(C)cc3C)sc2c1 | -0.015 | -0.6
COc1cccc(NC(=O)Cn2c(=O)n(-c3ccccc3)c(=O)c3sccc32)c1 | 0.55 | -0.3
Cc1ccc(NC(=O)c2ccco2)c(NC(=O)C(C)C)c1 | -0.12 | -0.7
CC(C)NC(=O)C(C)n1cccc1C(=O)c1ccccc1 (centres undefined) | 0.51 | -0.4
Cc1c(C)n(C(=O)CN2CCN(c3ccc(F)cc3)CC2)c2ccccc12 | 0.42 | 0.9
O=C(CCNS(=O)(=O)c1cccc2nsnc12)N1CCc2ccccc21 | 0.19 | ·
Cc1ccc(C)c2[nH]c(=O)c(CN(CCCN3CCCC3=O)S(=O)(=O)c3ccc(F)cc3)cc12 | · | -0.1
CC(=O)c1c(CSc2ccccc2)oc2ccc(O)c(CN(C)C)c12 | -0.26 | ·
Cc1ccccc1/C=C1\CN(C)C/C(=C\c2ccccc2C)C1=O | -2.6 | 0.45
COc1ccc(-c2nnc(N3CCOCC3)c3ccccc23)cc1 | -0.71 | ·
CCn1c(SCC(=O)c2ccccc2)nnc1-c1ccncc1 | -0.37 | -0.4
CCS(=O)(=O)N1CCCC(C(=O)NC2CC2)C1 (centres undefined) | -0.075 | -1.6
N#C/C(=C\c1c(F)cccc1Cl)S(=O)(=O)Cc1ccco1 | -0.07 | -0.2
CC(=O)Oc1cc(OC(C)=O)c2c(-c3ccccc3)cc(=O)oc2c1 | 0.77 | 0.8
Cc1c(C)c(C)c(C(=O)c2ccccc2)c(C)c1C | -0.01 | ·

Record cards, from the list above. Order of screens: CapD inh | AID504770
Shown for O=C(CCNS(=O)(=O)c1cccc2nsnc12)N1CCc2ccccc21 → 0.19 | ·
Shown for CCS(=O)(=O)N1CCCC(C(=O)NC2CC2)C1 (centres undefined) → -0.075 | -1.6
Shown for Cc1c(C)c(C)c(C(=O)c2ccccc2)c(C)c1C → -0.01 | ·

(further entries)
SMILES | CapD inh | AID504770
COc1ccc(CCNC(=O)c2cc(C(C)C)on2)cc1OC | -0.89 | 1
O=C(CSc1nc2ccccc2nc1Cc1cccc([N+](=O)[O-])c1)Nc1ccc(F)cc1F | 0.12 | ·
Cc1nn(-c2ccccc2)c(C)c1/C=N/NC(=O)Cn1cncn1 | 0.64 | ·
Cc1cc(-c2onc(C)c2C(=O)NNC(=O)C(CCCN(C(=O)OC(C)(C)C)/C(N)=N/C(=O)OC(C)(C)C)NC(=O)OC(C)(C)C)no1 (centres undefined) | -1.1 | ·
CCc1nnc(SCc2cccc(OC)c2)c2cc3occc3n12 | 0.33 | -0.55
O=C(NCC1CCCO1)NC(=O)c1ccccc1 (centres undefined) | 1.1 | 1.1
CC(C)Oc1ccc(C(=O)Nc2sccc2C#N)cc1 | -0.32 | 0.25
CCC1CCCCN1C(=O)c1cc(-c2ccc(C)cc2)on1 (centres undefined) | 0.23 | -0.6
COc1ccncc1C(=O)Nc1ccc(F)cc1F | -0.035 | -0.9
C/C=C/C(=O)Oc1ccc(Cl)cc1 | · | -0.75

Copied from the list:
Under CapD inh, Cc1c(C)c(C)c(C(=O)c2ccccc2)c(C)c1C shows -0.01
Under CapD inh, Cc1nn(-c2ccccc2)c(C)c1/C=N/NC(=O)Cn1cncn1 shows 0.64
Under AID504770, CCOC(=O)C(O)(c1csc(N)n1)c1c(C)nn(-c2ccc(C)cc2)c1N (centres undefined) shows -0.85

Among those listed so far, these have a tert-butyl group.
SMILES | CapD inh | AID504770
Cc1ccc(NC(=O)Cn2nnc(S(=O)(=O)c3ccc(C(C)(C)C)cc3)c2N)c(C)c1 | 0.3 | -0.25
Cc1cc(-c2onc(C)c2C(=O)NNC(=O)C(CCCN(C(=O)OC(C)(C)C)/C(N)=N/C(=O)OC(C)(C)C)NC(=O)OC(C)(C)C)no1 (centres undefined) | -1.1 | ·

(more compounds)
SMILES | CapD inh | AID504770
CCSc1nnc(NC(=O)Cn2c3ccccc3c(=O)c3ccccc32)s1 | 7.9 | ·
CC(=O)Nc1cccc(C(=O)NC(C)c2ccccc2)c1 (centres undefined) | 0.08 | 2.3
CCOC(=O)C1CCN(C(=S)NC2CC3C=CC2C3)CC1 (centres undefined) | -0.38 | ·
O=C1C=CC(=O)N1c1ccc(-n2nc(C(F)(F)F)cc2C(F)(F)F)cc1 | 0.23 | 0.05
Cc1ccc(S(=O)(=O)/N=C(\CN2CCOCC2)N2CCOCC2)cc1 | 0.07 | -1.1
Cc1cccc2nc(Cn3c(=O)n(CCC(=O)NCc4ccco4)c(=O)c4sccc43)cc(=O)n12 | 0.96 | 2.2
CCc1cccc2c(C=C(C#N)C#N)cn(CC(=O)N3CCCCCC3)c12 | · | 1.8
CCN(CCN(C)C)Cc1ccc(NC(C)=O)cc1 | -0.12 | 0.2
O=C(O)Cc1ccc2c(c1)[nH]c1ccccc12 | · | 0.3
COc1cccc(C(C)NS(=O)(=O)c2cc(Br)c(Cl)s2)c1 (centres undefined) | -0.32 | ·
COc1cccc(/C=N/NC(=O)c2cccc(OC)c2)c1 | -0.06 | -0.1
Nc1nnnn1CC(=O)N/N=C/c1ccc(-c2cccc(Cl)c2)o1 | 11 | -0.15
Fc1ccc(-c2cc3ccccc3[nH]2)cc1Cl | 4.8 | ·
CC1=C(C)CS(=Nc2ccccc2)N(S(=O)(=O)c2ccccc2)C1 (centres undefined) | 0.03 | -0.6
Cc1cccc(C(=O)Nc2ccc3[nH]c(=O)[nH]c3c2)c1 | 1.1 | -0.3
O=C(O)c1ccccc1NCCO | 92 | 1.1
CCOC(=O)Cc1nc2ccccc2[nH]1 | 0.96 | -0.8
C=CCSc1nnc(NC(=O)CCNC(=O)c2ccco2)s1 | · | -0.55
Clc1ccc(-c2nc(-c3ccc(Br)cc3)cs2)cc1 | -0.33 | ·
CCOC(=O)CSc1nnc(NC(=O)C23CC4CC(CC(C4)C2)C3)s1 | 0.88 | -0.15
CCOc1ccc(Cc2n[nH]c(=S)o2)cc1 | 0.14 | ·
O=C(Oc1ccccc1-c1cnc2ccccc2n1)c1ccc(F)cc1 | 0.54 | 0.45
Cc1nc(=O)c(-c2ccccc2)c(C)n1CC1CCCO1 (centres undefined) | · | -0.55
COC(=O)C1=C(C(=O)OC)SC(=C2C(=S)C(C)(C)N(C(=O)COc3ccc(Cl)cc3)c3cc(C)c(C)cc32)S1 | 0.37 | ·
O=C(NCCc1nnc2ccc(N3CCCC3)nn12)c1ccccc1 | 13 | -0.1
Cc1cc(=O)cc(C)n1-c1ccc(O)cc1 | 0.52 | -0.3
CC(=O)OCc1ccccc1Sc1ccccc1C(=O)NCc1ccccc1 | 0.43 | 0.65
O=C(O)CCCn1cnc2sc3c(c2c1=O)CCCC3 | · | -0.7
CCCN1CCSC1=Nc1ccccc1F | · | -0.4
CC(C)(C)c1cc(C#N)cc(C(C)(C)C)c1O | 0.16 | -0.1
Cc1ccc(CN2CCC(CNS(=O)(=O)c3cc(-c4cc(C)no4)ccc3C)C2)cc1 (centres undefined) | -0.23 | -0.55
COc1ccc(S(=O)(=O)c2cnc3cc4c(cc3c2N2CCC(C(N)=O)CC2)OCCO4)cc1 | -1.9 | -0.3
N#CC(c1ccccn1)(c1ncc(C(F)(F)F)cc1Cl)N1CCOCC1 (centres undefined) | -0.21 | ·
CCn1c(=O)n(CC)c2cc(NC(=O)CSc3nc4ccccc4[nH]3)ccc21 | · | -0.25
Cc1ccc(/C=N/NC(=O)c2ccccc2NS(=O)(=O)c2cccs2)o1 | · | -0.8
O=C(COC(=O)c1ccccn1)NC1CCCc2ccccc21 (centres undefined) | · | 0
O=C(O)c1cc(-c2cccs2)nc2ccccc12 | 85 | -0.05
O=C(CO)c1ccc2cc[nH]c2c1 | 18 | -0.6
CC(=O)NC(c1ccccc1)n1nnc2ccccc21 (centres undefined) | -0.16 | -0.7
CCOC(=O)c1cc(-c2ccc(S(=O)(=O)N(C)CCCc3ccco3)s2)on1 | -0.51 | 0.65
O=C(OC1CCCCC1=O)c1ccc2c(c1)C(=O)N(Cc1ccco1)C2=O (centres undefined) | · | 0
O=C(O)c1ccccc1C(=O)Nc1ncccc1OCc1ccc(Cl)c(Cl)c1 | 0.84 | 0.65
COc1cc(OC)c(C2C3=C(CCCC3=O)Nc3ncnn32)cc1OC (centres undefined) | 0.26 | ·
COc1ccc(C(=O)N2N=C3c4ccccc4S(=O)(=O)N3C2N(C)C)cc1 (centres undefined) | 15 | ·
C=CCNC(=O)c1c(N)n(CCN2CCOCC2)c2nc3ccccc3nc12 | · | -0.25
CCCCNC(=O)c1c[nH]c2ccc(C)cc2c1=O | · | -0.2
CCCCSC(=O)Nc1ccccc1 | 0 | 0.65
O=C(CN1CCN(S(=O)(=O)c2cccs2)CC1)Nc1ccccc1Oc1ccccc1 | · | -1.1
O=C(NCc1ccc2c(c1)OCO2)c1ccc2c(c1)C(=O)N(C1CCCCC1)C2=O | 0.14 | 1.4
C(=C\c1ccccc1)/CNc1ccc(N2CCOCC2)cc1 | · | -0.45

Random excerpt: four entries already listed.
SMILES | CapD inh | AID504770
CCCCSC(=O)Nc1ccccc1 | 0 | 0.65
O=C(NCc1ccc2c(c1)OCO2)c1ccc2c(c1)C(=O)N(C1CCCCC1)C2=O | 0.14 | 1.4
O=C(CN1CCN(S(=O)(=O)c2cccs2)CC1)Nc1ccccc1Oc1ccccc1 | · | -1.1
COc1cc(OC)c(C2C3=C(CCCC3=O)Nc3ncnn32)cc1OC (centres undefined) | 0.26 | ·

Next part
SMILES | CapD inh | AID504770
O=C(c1cccs1)C1C2C(=O)C3OCC(O3)C12 (centres undefined) | 0.03 | -0.2
N#CC(C#N)=NNc1ccc(SC(F)F)cc1 | · | -3.4*
O=C(OCC(=O)N1CCCC1)c1ccco1 | -0.095 | 2.4
C=CCNC(=S)Nc1ccc2cn[nH]c2c1 | · | 0.5
O=C(OC1CCCCC1=O)c1ccc2c(c1)OCO2 (centres undefined) | · | 3
CCN1CCN(C(=O)CS(=O)Cc2nc(-c3ccccc3)oc2C)CC1 (centres undefined) | 0.36 | -0.05

Screening data: PubChem BioAssay, ICCB-Longwood Screening Facility, Harvard Medical School
